UCH37 inh – human UCH37 deubiquitinating enzyme inhibition; Q9Y5K5; purified proteasome/UCH37, Ub-AMC cleavage fluorescence; inhibition, % (no concentration beside the values); hit rate 0.33% among 330,000; AID 588478;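 active = mean of two replicates above 20%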;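 also: 0% = compound-free wells with enzyme and 100% = wells lacking proteasome; stock transfer was 100 nL into about 20 µL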
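Schedule: 30 min plus 25 min, room temperature / Material: human UCH37 within purified proteasomes / Technique: AMC fluorescence intensity at 355/460 nm / Buffer or medium: pH 7.4 Tris-HCl (50 mM) with ovalbumin, ATP-MgCl2, DTT / Controls: wells without proteasome as full block, compound-free enzyme plus substrate as uninhibited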
rRNA inh HTS – inhibits bacterial ribosomal RNA function over humanized ribosomes; E. coli WT GFP vs humanized-ribosome RFP mutants, fluorescence, 24 h; hits give low values; DMSO median 0, no signal -100; GFP signal change (wild-type ribosome), % (no concentration beside the values); hit rate 1.6% among 350,000; AID 720706;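 active = significant combined selectivity score with lowered wild-type GFP, culture density cut under 30%, mutant RFP and density less affected; inactive = any of these conditions unmet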; also: one replicate is shown; some compounds called inactive have numbers as strong as hits
HNF4A DNA FP – change in binding of human HNF4 alpha to DNA; HNF4a-FITC DNA binding, fluorescence polarization, 1 h; activity change, % at 10 µM; P41235; hit rate 0.3% among 360,000; in the data active = activity change above about 30%, passing the limit was not always enough;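 also: controls were the assay level and a saturating level of protein; the project sought stronger binding though the title names inhibitors; some compounds called inactive have numbers as strong as hits; positive values seem to mean higher polarization but the record does not say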
FGF22 binding – FGF22 (human) thermal shift binding; recombinant FGF22 thermal shift, SYPRO orange fluorescence; percent of sucrose octasulfate shift, DMSO zero; calls only at 9.99 µM; hit rate 1.5% among 340,000; Q9HCT0; AID 651658;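 active = melting point raised past a set limit in the mean and every replicate; three in four hits are not shown here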
Target sequence (Q9HCT0 whole entry, looked up): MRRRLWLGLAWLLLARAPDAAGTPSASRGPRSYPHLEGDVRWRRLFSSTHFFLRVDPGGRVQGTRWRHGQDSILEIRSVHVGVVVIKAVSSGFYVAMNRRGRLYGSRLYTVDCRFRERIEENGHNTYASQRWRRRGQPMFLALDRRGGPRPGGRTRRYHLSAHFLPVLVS
Ecoli growth – inhibitors of Escherichia coli growth; OD600, 23 h; hits give low values; OD600 absorbance (concentration not given with the values); hit rate 0.21% among 330,000;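 active = OD600 absorbance below the run mean of sample wells minus 3.6 SD, in any replicate, cut at about 0.56 in these data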;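 also: stock transfer was 300 nL into about 60 µL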
Beta2AR agonist – agonists of human beta-2 adrenergic receptor inducing internalization. P07550. Am2.2-beta2AR cells, FAP receptor internalization, flow cytometry; reference of the scale not given here. response, % (test concentration not listed). hit rate 0.43% among 340,000. AID 504454;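 active = response above a set limit, near 3 SD of response in nonfluorescent compounds, cut at about 42% in these data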;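 also: stock transfer was 100 nL into about 11 µL; a reference agonist was the positive control; negative values mostly stem from fluorescent compounds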
Target sequence (P07550 whole entry, looked up): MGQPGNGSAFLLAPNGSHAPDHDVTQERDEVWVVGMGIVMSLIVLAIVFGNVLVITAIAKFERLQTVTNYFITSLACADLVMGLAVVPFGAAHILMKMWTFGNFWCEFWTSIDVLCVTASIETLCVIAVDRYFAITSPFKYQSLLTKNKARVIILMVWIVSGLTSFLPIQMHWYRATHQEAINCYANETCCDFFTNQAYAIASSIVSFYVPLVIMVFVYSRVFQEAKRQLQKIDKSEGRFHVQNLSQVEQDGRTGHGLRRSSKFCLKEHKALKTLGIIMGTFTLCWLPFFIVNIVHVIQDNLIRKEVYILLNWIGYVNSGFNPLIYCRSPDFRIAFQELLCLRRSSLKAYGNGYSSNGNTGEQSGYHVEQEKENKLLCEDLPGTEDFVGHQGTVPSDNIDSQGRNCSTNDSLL
ALR H2O2 inh – human ALR oxidase inhibition via reduced H2O2; hit rate 3.8% among 290,000; inhibition, % (test concentration not listed); purified ALR, DTT oxidation, H2O2 HRP-luminol luminescence; AID 485317;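 active = mean and each replicate at 75% or more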;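 also: stock transfer was 7.5 nL into about 7.5 µL; 0% = neutral wells and 100% = wells with inactivated enzyme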
Target sequence (P55789 whole entry, looked up): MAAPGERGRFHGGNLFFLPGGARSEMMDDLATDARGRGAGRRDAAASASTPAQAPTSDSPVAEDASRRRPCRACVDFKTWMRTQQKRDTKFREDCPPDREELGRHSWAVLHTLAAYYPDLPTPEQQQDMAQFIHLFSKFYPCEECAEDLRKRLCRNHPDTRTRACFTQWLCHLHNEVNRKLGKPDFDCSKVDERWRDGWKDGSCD
rRNA inh HTS OD600 – further read-out of rRNA inh HTS, marked with its call; OD600 change, %; measured here: OD600 growth;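 optical density of the mix in the first replicate; 0 = DMSO median and -100 = no signal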
rRNA inh HTS RFP – further read-out of rRNA inh HTS, marked with its call; RFP signal change, %; measured here: RFP humanized mutant strains;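 first replicate; 0 = DMSO median and -100 = no signal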
Numbers without * were called inactive; i = inactive; x = no result given; & = joins results of further samples.

SMILES | UCH37 inh | rRNA inh HTS | rRNA inh HTS OD600 | rRNA inh HTS RFP | HNF4A DNA FP | FGF22 binding | Ecoli growth | Beta2AR agonist | ALR H2O2 inh
COc1ccc(-c2csc(C3=C(O)CN(C(C)C)C3=N)n2)cc1OC | 0.7 | -34.9* | -24.0* | -7.8* | 6.0 | i | 0.708 | 12.3 | 62.0
Cc1ccc(CN(C)C(=O)c2ccc(S(=O)(=O)N3CCCCCC3)cc2)o1 | 3.5 | -5.0 | -13.4 | 0.6 | -0.7 | i | 0.718 | -4.2 | x
COc1ccc(-c2occ(C(=O)O)c2C(=O)O)cc1 | 1.6 | x | x | x | -1.3 | x | 0.69 | -3.2 | -4.5
CCCS(=O)(=O)N1CCCC(C(=O)NCCN2CCC(Cc3ccccc3)CC2)C1 (stereo unspecified) | -0.8 | x | x | x | -5.7 | x | 0.733 | -9.9 | -6.3
CC(C)CC(C(=O)Oc1ccc2c3c(c(=O)oc2c1)CCC3)N1C(=O)c2ccccc2C1=O (stereo unspecified) | -198.3 | x | x | x | -1.2 | x | 0.667 | 7.1 | x
COc1cc(OC)c(C(=O)CCCN2CCCC2)c(OC)c1 | 2.9 | 4.8 | 14.0 | 0.9 | 5.0 | i | 0.704 | 4.3 | -4.5
O=C(c1cc(C2CC2)nn1-c1ccccc1)N1CCN(c2ccccn2)CC1 | -0.3 | -1.4 | -1.7 | -1.1 | -1.3 | i | 0.69 | -9.8 | x
Cc1ccc(O)c(-c2cc(C(=O)Nc3cccnc3)[nH]n2)c1 | 4.5 | -8.0 | -0.7 | 14.8 | 2.3 | i | 0.7 | 3.1 | 9.8
CCOC(=O)CC(=O)NC(CC(=O)OC)c1ccc(C(C)C)cc1 (stereo unspecified) | -1.1 | 7.0 | 8.9 | 1.5 | -3.0 | i | 0.676 | 4.8 | 0.1
OCCN(CCO)c1ccc2ccccc2c1 | -398.5 | -12.9 | -9.8 | 4.2 | 5.8 | x | 0.681 | 7.4 | 98.2*
Cc1cccc(-c2sc(Nc3ccccc3)n[n+]2-c2ccccc2)c1 | x | -2.0 | -7.2 | 2.1 | 0.8 | i | x | -3.2 | 5.1
CSc1ncccc1C(=O)Nc1ccccc1N1CCOCC1 | 3.3 | x | x | x | 4.2 | i | 0.69 | -1.4 | -5.2
O=C(O)CC12CC3CC(C1)CC(n1ncc(NCc4ccco4)c(Cl)c1=O)(C3)C2 | 5.9 | 2.8 | 1.6 | -3.3 | 3.4 | i | 0.702 | 16.7 | -2.6
CC(C)(C)c1ccc(/C=N/NC(=O)CN2CCS(=O)(=O)CC2)cc1 | x | 4.0 | 4.7 | 0.0 | -0.9 | i | x | -5.4 | 0.2
CC1(C)Cc2nc(N3CCOCC3)c(C#N)cc2CO1 | -292.4 | x | x | x | 5.0 | x | 0.716 | 9.3 | -8.7
CCOc1ccc(/C=C(/NC(=O)c2ccccc2Cl)C(=O)O)cc1 | 2.5 | 16.1 | 7.6 | 1.0 | 0.3 | i | x | 6.0 | 2.2
CC(=O)Nc1ccc(S(=O)(=O)N(C)CC(=O)N/N=C/c2cccs2)cc1 | x | 2.8 | 1.1 | -3.6 | -0.4 | i | x | -12.2 | -5.2
CC(NC(=O)c1ccccc1NC(=O)c1ccccc1)C(=O)N1CCOCC1 (stereo unspecified) | -0.9 | x | x | x | 4.0 | i | 0.689 | -0.6 | x
Cc1cc(C)n(-c2nc3ccccc3c(=O)n2OCC#N)n1 | -2.0 | -48.3 | -76.8 | -21.8 | -0.3 | i | 0.619 | -1.7 | -9.9
CC1CCCN(C(=O)CSc2nnc(-c3cccnc3)n2C2CCCCC2)C1 (stereo unspecified) | 4.6 | x | x | x | 1.7 | x | 0.654 | -0.9 | -4.0
CCSS(=O)(=O)c1cccc2cccnc12 | x | 20.0 | 9.7 | -1.2 | 4.8 | i | x | 0.5 | 9.7
COc1ccc(CNC(=O)C2CCN(C(=O)c3ccccc3)CC2)cc1 | 3.4 | 2.8 | -1.8 | 2.0 | 3.0 | i | 0.699 | 2.1 | -1.4
O=C1C(=O)N(CC2CCCO2)C(c2ccco2)/C1=C(/O)c1ccc(F)cc1 (stereo unspecified) | 5.2 | 10.8 | 5.4 | 0.4 | 4.1 | i | 0.73 | -3.7 | 14.3
CN(C)c1ccc(-c2nn3c(-c4cccnc4)nnc3s2)cc1 | -81.6 | x | x | x | x | x | 0.725 | x | 3.1
FC(F)(F)c1nnc2c(Sc3ccccc3)nc3ccccc3n12 | -57.2 | x | x | x | -2.6 | x | 0.752 | 25.6 | -3.0
S=C(NCC(c1cccnc1)N1CCOCC1)NC1CCCCC1 (stereo unspecified) | 6.6 | 12.7 | 14.9 | 0.9 | -4.7 | i | 0.685 | 1.0 | -7.9
COc1cc(/C=N/N=C2/C(=O)Nc3ccccc32)ccc1O | x | x | x | x | -0.4 | x | x | 0.7 | 98.7*
COC(=O)C(NC(C)=O)(Nc1ccc(Br)cn1)C(F)(F)F (stereo unspecified) | 5.7 | x | x | x | -1.6 | x | 0.703 | -0.1 | -5.6
COc1cc2c3nnc(-c4ccc(F)cc4)c-3cn(Cc3ccccc3F)c2cc1OC | x | 24.5 | 20.5 | 4.4 | 87.7 | i | x | -84.7 | x
O=C(CCN1CCCC1Cc1ccccc1)c1ccc2c(c1)OCCO2 (stereo unspecified) | 0.0 | x | x | x | 1.9 | x | 0.718 | 33.1 | 6.2
NS(=O)(=O)c1ccc(NC(=O)CSc2cn[nH]n2)cc1 | 5.7 | -0.7 | 5.3 | -2.2 | -1.4 | i | 0.7 | 5.1 | -2.3
C/C(=N\N(C)C)c1ccc(OCCOc2ccc([N+](=O)[O-])cc2)cc1 | x | -3.3 | 2.1 | -2.3 | -2.4 | i | x | -9.7 | x
COc1cc(CNc2ccc(C(=O)O)cc2)cc(Br)c1OCC(=O)NC(C)(C)C | 0.8 | x | x | x | 3.7 | x | 0.652 | 4.2 | -13.2
CCOc1ccc2nc(NC(=O)CSc3nc4cccnc4n3C)sc2c1 | 2.6 | 2.7 | 2.2 | 4.2 | 2.6 | x | 0.774 | 49.5* | x
COc1ccc(NC(=O)c2cccc(S(=O)(=O)N3CCc4ccccc43)c2)cn1 | 2.8 | -20.8 | 34.9 | -2.2 | -5.3 | i | 0.728 | 2.8 | -0.5
COc1ccc(N(Cc2ccccc2)S(=O)(=O)c2ccc(C)cc2)cc1 | 3.0 | -4.1 | -8.0 | -3.5 | 2.3 | i | 0.71 | 3.3 | -2.2
COc1ccc(CCNC(=O)CSc2nnc(Cc3csc(N)n3)n2C)cc1OC | 2.2 | x | x | x | -4.3 | x | 0.754 | -4.1 | -1.4
COc1ccc(Nc2ncnc3ccccc23)cc1 | -6.8 | x | x | x | -2.1 | x | 0.738 | -1.2 | -2.5
O=C(O)c1cc(-c2ccco2)nn1-c1ccc(Cl)cc1 | -2.2 | 21.9 | 4.1 | 9.8 | -42.5 | i | 0.724 | 16.1 | x
COc1cc(CNCc2ccc(OC)cc2OC)cc(OC)c1 | 3.4 | 1.4 | 4.9 | 0.0 | 3.4 | i | 0.664 | -3.1 | -42.2

Three entries out of the list, ordered by formula weight, falling.
SMILES | UCH37 inh | rRNA inh HTS | rRNA inh HTS OD600 | rRNA inh HTS RFP | HNF4A DNA FP | FGF22 binding | Ecoli growth | Beta2AR agonist | ALR H2O2 inh
CCCS(=O)(=O)N1CCCC(C(=O)NCCN2CCC(Cc3ccccc3)CC2)C1 (stereo unspecified) | -0.8 | x | x | x | -5.7 | x | 0.733 | -9.9 | -6.3
COc1cc(CNCc2ccc(OC)cc2OC)cc(OC)c1 | 3.4 | 1.4 | 4.9 | 0.0 | 3.4 | i | 0.664 | -3.1 | -42.2
Cc1ccc(O)c(-c2cc(C(=O)Nc3cccnc3)[nH]n2)c1 | 4.5 | -8.0 | -0.7 | 14.8 | 2.3 | i | 0.7 | 3.1 | 9.8

(continued)
SMILES | UCH37 inh | rRNA inh HTS | rRNA inh HTS OD600 | rRNA inh HTS RFP | HNF4A DNA FP | FGF22 binding | Ecoli growth | Beta2AR agonist | ALR H2O2 inh
COc1ccc(/C=N/N=C2\SCC(=O)N2c2c(C)n(C)n(-c3ccccc3)c2=O)cc1OC | x | 8.6 | 6.7 | -0.8 | 1.8 | i | x | -0.9 | -3.4
Nc1nc(SCC(=O)c2ccc(Oc3ccccc3)cc2)n[nH]1 | 0.1 | x | x | x | -3.3 | x | 0.613 | -16.1 | 0.6
CC(CN(C(N)=O)c1ccccc1O)C(=O)O (stereo unspecified) | -0.9 | x | x | x | -4.9 | x | 0.791 | 3.8 | x
O=C(O)c1ccc2c(c1)S(=O)(=O)c1cc(Cl)ccc1C2=O | x | -14.1 | -23.4 | -7.5 | -3.5 | i | x | -6.5 | 5.1
CC(C)[C@H](NC(=O)c1ccccc1)C(=O)OCC(=O)N1CCc2ccccc2C1 | 2.8 | x | x | x | 1.8 | x | 0.66 | 0.3 | 1.0
CC1(C)C2CCC(C2)C1(C)NC(=O)CNCC1CCCCC1 (stereo unspecified) | x | -10.3 | -9.3 | 1.1 | -2.1 | i | x | -18.6 | -30.0
Cc1nnc(C)n1/N=C/c1ccc(-c2ccccc2)cc1 | x | x | x | x | 2.8 | x | x | 9.1 | -6.3
Cc1c(C)n2c(SCC(=O)N3CCOCC3)nnc2[nH]c1=O | 2.9 | 4.2 | 4.2 | -0.9 | -3.2 | i | 0.686 | -2.7 | 0.6
CCN(CC)S(=O)(=O)c1ccc(Cl)c(NC(=O)COC(=O)/C=C/c2ccc(O)c(OC)c2)c1 | -1.2 | -10.9 | 2.0 | 2.4 | 0.5 | i | 0.702 | -5.6 | 8.5
CC(C)C(OC(=O)c1ccco1)C(=O)NC1CCCC1 (stereo unspecified) | 4.6 | -1.6 | 3.3 | -1.0 | 4.6 | i | 0.711 | 7.0 | -2.6
O=C(NCC(c1cccs1)N1CCOCC1)c1ccc(Cl)c([N+](=O)[O-])c1 (stereo unspecified) | 2.4 | 9.8 | 7.1 | -0.9 | -3.9 | i | 0.63 | -2.0 | -1.3
CCn1c(SCC(=O)NC2CC2)nnc1-c1ccncc1 | -0.2 | 0.9 | 9.0 | -0.1 | -1.1 | i | 0.646 | -2.2 | 2.2
Cc1cc(C)c(S(=O)(=O)N2CCN(C(=O)C3COc4ccccc4O3)CC2)c(C)c1 (stereo unspecified) | 1.1 | -18.0 | -21.5 | -1.0 | -1.2 | i | 0.696 | -3.7 | 0.3
Cc1cccc(NCCNc2cccc(C)c2)c1 | 1.8 | x | x | x | 1.5 | x | 0.702 | -6.3 | 98.7*
Cc1noc(C)c1NC(=O)N(C)C[C@H]1OCCCC[C@@H](C)Oc2ccc(NC(=O)c3ccccc3)cc2C(=O)N([C@H](C)CO)C[C@@H]1C | x | 5.3&1.3 | -6.5&1.8 | 0.5&-1.1 | 1.4 | i | x | x | x
COCCNC(=O)C1(C)CCN(C(=O)c2sccc2C)C1 (stereo unspecified) | x | 17.7 | 24.0 | 4.1 | 2.0 | i | x | x | x
CC(Sc1nnc(-c2ccc(OC(F)F)cc2)o1)C(=O)NCC1CCCO1 (stereo unspecified) | 2.9 | 8.0 | 5.7 | 0.9 | -4.0 | i | 0.68 | 7.5 | 0.9
COc1cccc(CN2CCN(Cc3ccc(OC)c(OC)c3)CC2CCO)c1 (stereo unspecified) | 4.1 | 7.8 | 8.2 | 1.1 | 3.7 | i | 0.688 | -1.3 | -4.4
O=C(Cn1cnc([N+](=O)[O-])n1)NCCc1ccccc1 | 2.2 | 18.7 | 18.4 | 1.3 | -1.0 | i | 0.681 | 1.8 | -52.8
CCNS(=O)(=O)c1ccc(OC)c(C(=O)NC2CCCCC2)c1 | 2.5 | x | x | x | 2.8 | x | 0.664 | -3.1 | 0.9
CC(=O)c1ccc(Nc2nc(-c3ccccc3)nc3ccccc23)cc1 | x | -3.2 | -1.0 | -1.8 | -0.6 | i | x | 0.9 | x

These rows are one share of the data, so the mix of outcomes need not match the whole.
